HPGD inh = qHTS Assay for Inhibitors of HPGD (15-Hydroxyprostaglandin Dehydrogenase); purified HPGD, NADH fluorescence kinetic, PGE2 substrate; Potency, µM, without a hit: at the highest dose activity change, negative = inhibition, actives largely listed as inhibitors; 150,000 tested, 4.3% active; AID 894, 2007; active = well fitted inhibition curve with a large enough effect (not every such curve was filed as active); inconclusive = small, poorly fitted or top-dose-only effect, or another doubt; inactive = no such curve, though single readings can be large or run the other way;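 further: top concentration of the series not given in the record; plate controls included wells without enzyme; inactives centre near -10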
Target sequence (P15428 whole entry, looked up): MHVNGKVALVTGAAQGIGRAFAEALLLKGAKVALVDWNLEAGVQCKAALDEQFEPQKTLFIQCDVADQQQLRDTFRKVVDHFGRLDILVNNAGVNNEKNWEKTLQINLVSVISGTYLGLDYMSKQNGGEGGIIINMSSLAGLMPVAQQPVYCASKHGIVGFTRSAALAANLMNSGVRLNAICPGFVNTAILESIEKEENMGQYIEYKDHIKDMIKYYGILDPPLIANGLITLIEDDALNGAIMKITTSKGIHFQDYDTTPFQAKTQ
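NADH formation kinetics: reaction with 30 uM PGE2 and 1 mM NAD+ (final), 20 nM enzyme, Tris-HCl pH 8 with Tween 20, after 15 min compound preincubation at room temperature. Fluorescence change, last versus first of five reads.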
An asterisk follows results filed as active. On the % scale 0 is the no-effect control and ±100 the full control effect; potency means the concentration at half of the fitted maximal effect. Not all compounds are listed, so the mix of outcomes need not match the whole.

Preview (4 entries):
`CCC(=O)Nc1c(OC(=O)CC)ccc2c(C)cc(=O)oc12` gave HPGD inh inconclusive.
O=C(N/N=C/c1ccc(-c2ccc(S(=O)(=O)Nc3ncccn3)cc2)o1)c1cc2ccccc2cc1O was read as HPGD inh inconclusive.
`CC1(C)CC(=O)C(CC2=C(O)CC(C)(C)CC2=O)C(=O)C1` gave HPGD inh -8.1%.
Screening CN(C(=O)Nc1ccc(Cl)c(Cl)c1)c1ccccc1C(=O)O returned HPGD inh inconclusive.

Main list, repeating the preview:
`CCC(=O)Nc1c(OC(=O)CC)ccc2c(C)cc(=O)oc12` gave HPGD inh inconclusive.
O=C(N/N=C/c1ccc(-c2ccc(S(=O)(=O)Nc3ncccn3)cc2)o1)c1cc2ccccc2cc1O was read as HPGD inh inconclusive.
`CC1(C)CC(=O)C(CC2=C(O)CC(C)(C)CC2=O)C(=O)C1` gave HPGD inh -8.1%.
Screening CN(C(=O)Nc1ccc(Cl)c(Cl)c1)c1ccccc1C(=O)O returned HPGD inh inconclusive.
CC1=NN(c2ccccc2)C(=O)/C1=C/c1cc2cc(C)ccc2nc1N1CCCCC1 was read as HPGD inh -17.4%.
`CCOC(=O)NC1(C(F)(F)F)NC(=O)N(c2ccc(F)cc2)C1=O` (centres undefined) gave HPGD inh -1.5%.
`O=S(=O)(c1ccc(N2CCCC2c2nc3ccccc3s2)nc1)N1CCOCC1` (centres undefined) gave HPGD inh -11.7%.
`CCOC(=O)/C=C/C(=O)Nc1cccc([N+](=O)[O-])c1` gave HPGD inh 1.58µM*.
For COc1cc(NC(=O)c2cc(-c3cccnc3)nc3ccc(C)cc23)c(OC)cc1Cl the results were HPGD inh -5.9%.
For CCc1ccccc1Nc1ccc(C(=O)O)cc1N the results were HPGD inh -27.6%.
Screening CCN1CCN(CC(=O)c2c(C)n(C)c3ccc(OC)cc23)CC1 returned HPGD inh -4.0%.
O=C(NCC1CCCO1)c1ccc2ccccc2n1 (centres undefined) was read as HPGD inh -27.3%.
`O=C(O)CNC(=O)c1ccc2c(c1)OCCO2` gave HPGD inh -6.9%.
`COc1cccc(/C(O)=C2/C(=O)C(=O)N(CCCN(C)C)C2c2cccc(Cl)c2)c1` (centres undefined) gave HPGD inh -3.5%.
For Cc1ccccc1OCC(=O)NNC(=O)c1ccc(-c2ccccc2)cc1 the results were HPGD inh -14.0%.
Screening Cc1ccccc1-n1c(=O)cc(N2CCc3ccccc32)[nH]c1=O returned HPGD inh -20.8%.
Screening Cc1onc(-c2ccccc2Cl)c1C(=O)N1CCc2ccccc2C1 returned HPGD inh 0.7%.
`Cc1ccc(S(=O)(=O)n2nc(C)c(Br)c2C)c(C)c1C` gave HPGD inh -8.8%.
Screening Cc1ccc(C2OC(=O)c3ccccc32)cc1 (centres undefined) returned HPGD inh -9.6%.
`O=C(CSc1nc2ccccc2c(=O)n1-c1ccc(F)cc1F)Nc1ccc(N2CCOCC2)cc1` gave HPGD inh -12.2%.
COC(=O)c1cccc(N2C(=O)c3cccnc3C2=O)c1 was read as HPGD inh inconclusive.
Screening CCN1CCn2c1nc(N1CCOCC1)nc2=O returned HPGD inh 1.3%.
Screening C=C(C)c1cccc(C(C)(C)NC(=O)Nc2ccc(Cl)cn2)c1 returned HPGD inh -5.8%.
Screening C/C(=N/S(=O)(=O)c1ccc(Cl)c(Cl)c1)OCC(C)(C)C returned HPGD inh -5.9%.
O=C(CC1NCCNC1=O)Nc1ccc(Oc2ccccc2)cc1 (centres undefined) was read as HPGD inh -24.3%.
Screening COc1cccc(S(=O)(=O)NCc2ccc(C(=O)NCC3CCCO3)cc2)c1 (centres undefined) returned HPGD inh 15.8µM*.
For COc1ccc(OC)c(NC(=O)CSCc2cnn(-c3ccccc3)c2-n2cccc2)c1 the results were HPGD inh -2.9%.
Screening O=c1[nH][nH]c(C(F)(F)F)c1C=NCc1ccccc1Cl returned HPGD inh -8.9%.
O=C(c1cccs1)[C@@H]1[C@@H]2C(=O)N(Cc3ccc4c(c3)OCO4)C(=O)[C@@H]2C2c3ccccc3C=CN21 (some centres undefined) was read as HPGD inh inconclusive.
`O=C(N/N=C/c1cccc(C(F)(F)F)c1)c1cc2c(s1)-c1ccccc1CC2` gave HPGD inh inconclusive.
`CCOC(=O)OC(C)OC(=O)C1N2C(=O)C(NC(=O)C(N)c3ccccc3)C2SC1(C)C` (centres undefined) gave HPGD inh inconclusive.
Screening COC(=O)[C@@H](NC(=O)NCc1ccc(F)cc1)C(C)C returned HPGD inh -6.6%.
Screening Cc1cccc(-c2nc(CS(=O)CC(=O)N3CCN(C)CC3)c(C)o2)c1 (centres undefined) returned HPGD inh -1.0%.
Screening FCCCOc1ccc(-c2nccc(-c3ccc(Br)cc3)n2)cc1 returned HPGD inh -27.4%.
`O=C(CSc1nnc(-c2cnccn2)n1Cc1ccco1)c1ccccc1` gave HPGD inh 15.8µM*.
For CCOC(=O)C(OC(=O)c1sc(=S)n(C)c1C)C(C)=O (centres undefined) the results were HPGD inh -4.3%.
CC(=O)c1cccc(NC(=O)C(OC(=O)c2cccs2)c2ccccc2)c1 (centres undefined) was read as HPGD inh -26.1%.
Screening O=[N+]([O-])C1=C(Nc2cccc3ccccc23)CS(=O)(=O)C1 returned HPGD inh 20µM*.
For CC(OC(=O)C1CC(O)CN1S(=O)(=O)c1ccccc1[N+](=O)[O-])C(=O)N1CCCCC1 (centres undefined) the results were HPGD inh -7.2%.
For CC1C=C[C@@H]2[C@H](C1)C(=O)N(Cc1ccccc1)[C@H]2c1ccccc1Br (some centres undefined) the results were HPGD inh -10.0%.
Screening Cc1ccc(C(C)C)c(OCCN)c1 returned HPGD inh -1.2%.
For N#C/C(=N\Nc1ccccc1Cl)C(=O)c1ccccc1 the results were HPGD inh 28.2µM*.
O=C(Nc1cccc(Cl)c1Cl)C1CCN(c2ncccn2)CC1 was read as HPGD inh -8.6%.
Screening CCOC(=O)c1cc(C)n(Cc2ccccc2)c1C returned HPGD inh -13.7%.
Screening CC1CCN(S(=O)(=O)c2ccc(S(=O)(=O)NCc3ccco3)cc2)CC1 returned HPGD inh -10.0%.
Screening O=C(CCn1cccc1)N1CCc2ccccc21 returned HPGD inh -17.0%.
Screening CCCCC1(CC(=O)OCC)C(=O)N(c2ccccc2)N(c2ccccc2)C1=O returned HPGD inh -5.3%.
For O=C(CSc1nc2ccccc2c(=O)n1-c1ccc(F)cc1F)c1c[nH]c2ccccc12 the results were HPGD inh -13.1%.
O=c1c(Cl)c(NCc2ccc(F)cc2Cl)cnn1C12CC3CC(CC(C3)C1)C2 was read as HPGD inh -10.9%.
CCC(C)OC(=O)C1C(c2ccccc2)C(C(=O)O)C1c1ccccc1 (centres undefined) was read as HPGD inh -4.7%.
`Cc1cccc(C)c1OCc1nc2ccccc2[nH]1` gave HPGD inh -14.3%.
`CC(C)NC(=O)/C(=C\c1cccc([N+](=O)[O-])c1)NC(=O)c1ccccc1` gave HPGD inh -6.1%.
O=C(c1cccs1)N(Cc1cccc(Cl)c1)C1CCS(=O)(=O)C1 (centres undefined) was read as HPGD inh -5.5%.
CCN(CCCNc1ncnc2nc[nH]c12)c1cccc(C)c1 was read as HPGD inh -9.3%.
For CCc1nn2c(=O)cc(N3CCN(c4cc(C)nc5ccccc45)CC3)nc2s1 the results were HPGD inh -0.6%.
Screening O=C1C2CC=C(Cl)CC2C(=O)N1CC1Cc2ccccc2CO1 (centres undefined) returned HPGD inh 22.4µM*.
For CCCCCCCCOC(=O)/C=C/c1c(C)[nH]c(=O)[nH]c1=O the results were HPGD inh -6.2%.
Screening COc1ccc(Cl)cc1NC(=O)[C@@H]1CCCN1C(=O)c1cccs1 returned HPGD inh 3.5%.
CN(C)c1ccc(NS(=O)(=O)c2cc(Cl)ccc2Cl)cc1 was read as HPGD inh -7.9%.
CCCCC(=O)Nc1cccc(NC(=S)NC(C)=O)c1 was read as HPGD inh -4.5%.
Screening Cc1ccc(-c2c(C#N)c(N)n3c(nc4ccccc43)c2C#N)cc1 returned HPGD inh inconclusive.
For CC(=O)c1cc2ccccc2oc1=O the results were HPGD inh -17.9%.
Screening O=C1CCCCC1 returned HPGD inh -7.8%.
CCOC(=O)c1sc(Nc2nc3c(F)cccc3s2)cc1C was read as HPGD inh inconclusive.
For CC(=O)c1cnn(-c2nc3c(C)cccc3s2)c1C the results were HPGD inh inconclusive.
`COc1cc(NS(=O)(=O)c2ccc(NC(=O)/C(=C/c3ccccc3Cl)NC(=O)c3ccccc3)cc2)nc(OC)n1` gave HPGD inh -11.8%.
Screening O=C(O)/C=C\C(=O)Nc1ccccc1C(=O)N1CCN(c2ccc(Cl)cc2)CC1 returned HPGD inh -1.7%.
Screening CC(C)Cc1cc(-c2ccco2)c(C#N)c(N)n1 returned HPGD inh inconclusive.
OCCCNCc1ccccn1 was read as HPGD inh -8.1%.
For COc1ccc(S(=O)(=O)N2CCC(C(=O)N3CCc4ccccc4C3)CC2)cc1OC the results were HPGD inh -11.2%.

Brought forward from above: three entries, followed by the next part.
Screening CC(C)Cc1cc(-c2ccco2)c(C#N)c(N)n1 returned HPGD inh inconclusive.
OCCCNCc1ccccn1 was read as HPGD inh -8.1%.
For COc1ccc(S(=O)(=O)N2CCC(C(=O)N3CCc4ccccc4C3)CC2)cc1OC the results were HPGD inh -11.2%.
CCCCN=C1NC(=O)C(CC(=O)Nc2ccc(Cl)cc2)S1 (centres undefined) was read as HPGD inh -3.7%.
For O=C(c1ccncc1)N1CCC[C@@]2(CCN(c3ccccc3)C2)C1 the results were HPGD inh -1.3%.
For Cc1ccc(C(=O)NCc2nnc(SCC(=O)Nc3sc4c(c3C#N)CCCC4)n2C)cc1 the results were HPGD inh -32.8%.
For Cc1ccc(OCC(=O)NCCO)cc1C the results were HPGD inh -18.3%.
O=C(Oc1cccc(-n2cnnn2)c1)c1ccco1 was read as HPGD inh 1.7%.
`CS(=O)(=O)N(CC(=O)NCc1ccccc1)Cc1ccc(Cl)cc1` gave HPGD inh -2.1%.
COc1ccc(C(=O)Nc2cccnc2)cc1OC was read as HPGD inh -12.7%.
`CC(C)(Oc1ccc(Cl)cc1)C(=O)N(Cc1ccccc1)c1ccccn1` gave HPGD inh -12.7%.
Screening O=C(NCc1ccccc1)C(=O)NCC(c1ccco1)N1CCOCC1 (centres undefined) returned HPGD inh 4.9%.
For O=C(O)c1cn[nH]c1-n1cnnn1 the results were HPGD inh -3.0%.

Already shown: an excerpt of the list.
Screening Cc1ccc(C2OC(=O)c3ccccc32)cc1 (centres undefined) returned HPGD inh -9.6%.
`O=C(CSc1nc2ccccc2c(=O)n1-c1ccc(F)cc1F)Nc1ccc(N2CCOCC2)cc1` gave HPGD inh -12.2%.
COC(=O)c1cccc(N2C(=O)c3cccnc3C2=O)c1 was read as HPGD inh inconclusive.
Screening CCN1CCn2c1nc(N1CCOCC1)nc2=O returned HPGD inh 1.3%.

New compounds follow:
Screening CC(=O)O[C@H]1CC[C@@]2(C)[C@@H](CC[C@H]3[C@H]2CC(=O)[C@@]2(C)[C@@H]3C[C@H]3CC(C)=CC(=O)[C@H]32)C1 returned HPGD inh -0.9%.
`C/C(=N\NC(=O)c1ccccc1F)c1ccc2c(c1)Nc1ccccc1S2` gave HPGD inh -12.3%.
`COc1ccc(NC(=O)c2ccc(OC)cc2)cc1` gave HPGD inh -24.0%.
For C/C(=N/OC(=O)c1c(F)cccc1F)c1nccs1 the results were HPGD inh -12.8%.
`Cc1ccc(C2CC(C(F)F)n3ncc(C(=O)Nc4c(C)nn(Cc5c(F)cccc5Cl)c4C)c3N2)cc1` (centres undefined) gave HPGD inh -3.9%.
`Cc1ccc(NC(=O)COc2ccc(/C=N/NC(=O)CSCc3ccccc3)cc2)cc1` gave HPGD inh inconclusive.
`CC(OC(=O)c1cccs1)C(=O)NCc1ccccc1` (centres undefined) gave HPGD inh -5.3%.
For Cc1ccc2[nH]c(=O)c3cc(C(=O)N(C)Cc4ccco4)sc3c2c1 the results were HPGD inh inconclusive.
For Cc1cc(NC(=O)c2noc3c2CCc2ccccc2-3)n(-c2ccccc2)n1 the results were HPGD inh -25.7%.
O=C1/C(=C\c2ccc(Br)o2)Cc2ccccc21 was read as HPGD inh inconclusive.
For Cc1ccc2cc(CN(Cc3cccs3)Cc3nnnn3C(C)(C)C)c3nnnn3c2c1 the results were HPGD inh -0.7%.
`Cc1nnc2sc(-c3cccc(NC(=O)c4cccnc4)c3)nn12` gave HPGD inh -28.5%.
`COc1cc(C(=O)Nc2cccc(-c3nncn3C)c2)cc(OC)c1OC` gave HPGD inh -3.0%.
Cc1cccc2cc(CN(CCCO)C(=O)Nc3ccc(Cl)cc3)c(=O)[nH]c12 was read as HPGD inh -9.0%.
`C=CCN(C(=O)Nc1ccc(Cl)cc1)C1CC(=O)N(c2ccc(OC)cc2)C1=O` (centres undefined) gave HPGD inh -12.6%.
Screening CSC1=C(C#N)C(C)C2=C(CC(C)(C)CC2=O)N1 (centres undefined) returned HPGD inh -24.3%.
Screening Cc1n[nH]c(=O)nc1NCCc1ccccc1 returned HPGD inh -5.4%.
COc1cc(NS(=O)(=O)c2ccc(NC(=O)c3ccc(C)o3)cc2)nc(OC)n1 was read as HPGD inh -15.1%.
`CCCCC(=O)Nc1ccc(C(=O)N2CCCC(C(=O)OCC)C2)cc1` (centres undefined) gave HPGD inh 14.1µM*.
COc1ccc(C(=O)Nc2ccc3c(c2)Cc2ccccc2-3)cc1 was read as HPGD inh inconclusive.
`COc1cc(NC(=O)C2C3C=CC(C3)C2C(=O)O)c(OC)cc1Cl` (centres undefined) gave HPGD inh -6.7%.
For O=C(COC(=O)c1ccc(S(=O)(=O)N2CCOCC2)cc1)NC1CCCC1 the results were HPGD inh -8.6%.
`Cc1oc(-c2ccc3c(c2)OCCO3)cc1C(=O)NC(CCC(=O)O)C(=O)O` (centres undefined) gave HPGD inh 14.1µM*.
`CCCc1ccc(Oc2cn[nH]c2-c2ccc(O)c(C)c2O)cc1` gave HPGD inh 17.8µM*.
